# MT1-MMP reporter = inhibitors of MT1-MMP promoter transcription, cell-based, luciferase reporter, luminescence (AID 618) | MT1-MMP promoter luciferase reporter cells, luminescence | calls from a first round at 10 µM; hits with a dose series show EC50 in µM | hit rate 0.62% among 87,000;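 active = over half of the reporter light lost at 10 µM or EC50 under 50 µM; inactive = the rest and hits that failed the dose series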;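 also: actives suppress MT1-MMP promoter-driven transcription so potencies describe inhibitors; HT1080 fibrosarcoma cells; overnight exposure; toxic or luciferase-blocking compounds were not removed from the actives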
# Hsc70 ATP site = small molecules displacing fluorescent ligand from Hsc70 – biochemical, fluorescence polarization, primary screen (AID 568) | Hsc70 fluorescence polarization, probe displacement; higher % means a stronger effect; strong numbers were not always called active | displacement, % at 20 µM; hits with a dose series show IC50 in µM | 83,000 tested, under 10 active;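 active = displacement above 50% without optical interference and an IC50 on retest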;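 also: ATPase domain with a fluorescein-tagged ATP probe; 0% = vehicle and 100% = excess ADP; read after one hour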
# WNV NS2B-NS3 inh = inhibitors of West Nile virus NS2B-NS3 protease; P06935; WNV NS2B-NS3 protease, fluorogenic substrate Ex360/Em465; stronger effect = lower value; z-score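 (tested at a level between 10 and 100 µM)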; hit rate 0.18% among 65,000; AID 577;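 active = z-score at -3 or under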;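 also: score is relative to mean and spread of the compound wells of a plate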
# Target sequence (P06935 1371-1501 limits assumed): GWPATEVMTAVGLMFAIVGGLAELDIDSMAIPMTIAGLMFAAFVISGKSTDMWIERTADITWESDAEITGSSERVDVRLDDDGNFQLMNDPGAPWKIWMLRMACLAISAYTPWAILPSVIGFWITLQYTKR
# Target sequence (P06935 1502-1679 limits assumed): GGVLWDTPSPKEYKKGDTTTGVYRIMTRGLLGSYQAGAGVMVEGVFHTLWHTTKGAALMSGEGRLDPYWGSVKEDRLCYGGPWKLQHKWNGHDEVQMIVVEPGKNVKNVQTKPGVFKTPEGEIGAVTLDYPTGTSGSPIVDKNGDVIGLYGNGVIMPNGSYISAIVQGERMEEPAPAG
# The depositor's hits bear a star; i = inactive; · = not tested or not shown; + = active, no number.
# Fields – MT1-MMP reporter | Hsc70 ATP site | WNV NS2B-NS3 inh
- COc1ccc(C)cc1-n1nnnc1SCC(=O)N1CCC(C(=O)Nc2nccs2)CC1
→ i | 0.4% | 0.06
- CCOC(=O)N1CCC(NC(=O)c2cc(S(=O)(=O)N3CCCC3)cn2C)CC1
→ i | 0.6% | 0.36
- O=S(=O)(O)CCN1CCOCC1
→ i | -3.1% | 1.1
- Cc1ccc(S(=O)(=O)c2c(N)n(CC3CCOC3)c3nc4ccccc4nc23)cc1 (centres undefined)
→ i | -0.5% | 1.5
- O=C1CC(N2CCCN(C3CC(=O)N(c4ccc(F)cc4)C3=O)CC2)C(=O)N1c1ccc(F)cc1 (centres undefined)
→ i | 3.4% | 0.34
- CCOC(=O)CNC(=O)c1c2c(nc3ccccc13)CCCC2
→ i | -7.6% | 1.8
- O=C(O)c1coc2ccccc12
→ i | 0.8% | -0.23
- O=C(CCCC(=O)N1CCc2ccccc21)N1CCc2ccccc21
→ i | 1.3% | -0.91
- CCCCN(Cc1ccccc1)C(=O)c1cnc2n(c1=O)CCS2
→ i | -2.2% | 1.8
- COc1ccc(C)cc1S(=O)(=O)N1CCN(c2cccc(C(F)(F)F)c2)CC1
→ i | -3.4% | -0.47
- CC(C)CCn1c(N)c(S(=O)(=O)c2cccs2)c2nc3ccccc3nc21
→ + | -4.9% | -0.33
- CCOC(=O)C1=C(c2ccccc2)NC(SCC(=O)NC2CCCCC2)=C(C#N)C1c1ccco1 (centres undefined)
→ i | 2.9% | -1.2
- O=C(O)COc1cccc(NC(=O)C2CCCO2)c1 (centres undefined)
→ i | 3.8% | -0.01
- CC(C)CC(NC(=O)COc1ccccc1)C(=O)O (centres undefined)
→ i | 3.6% | -1.4
- CC(=O)N1CCN(C(=O)COc2ccc(Br)cc2)CC1
→ i | -7.8% | 0.03
- CS(=O)(=O)NCCSc1nnnn1-c1ccccc1
→ i | 0.8% | 1.5
- CC(=O)C1=C(O)C(=O)N(CCc2c[nH]c3ccccc23)C1c1ccc(O)cc1 (centres undefined)
→ i | 5.0% | 2.5
- O=C(CSc1nc2ccccc2[nH]1)NCCN1CCCCC1
→ i | -3.8% | -1.8
- CCCN(S(=O)(=O)c1ccc(OCC)cc1)S(=O)(=O)c1cccs1
→ i | -0.7% | 0.67
- Nc1cc(=O)[nH]c(SCCNS(=O)(=O)c2ccccc2)n1
→ i | 3.9% | -0.1
- Cc1ccc2c(COC(=O)c3cnc(C)cn3)cc(=O)oc2c1
→ i | -4.3% | 0.83
- CCn1nc(C(=O)OCC(=O)c2c[nH]c3ccccc23)c2ccccc2c1=O
→ i | -10% | -0.86
- CCOC(=O)Cn1cnc2c(cnn2-c2ccc(Cl)cc2)c1=O
→ i | -4.0% | -0.12
- S=c1[nH]nc(-c2cc(-c3ccco3)[nH]n2)n1-c1ccccc1
→ i | 7.0% | ·
- CCC(C(=O)Nc1ccccc1C(=O)N1CCOCC1)N1C(=O)c2ccccc2C1=O (centres undefined)
→ i | 3.3% | ·
- Cc1ccccc1CS(=O)(=O)CCC(=O)N1CCN(c2ccc(N3CCOCC3)nn2)CC1
→ i | -2.1% | -0.4
- CC(=O)N=c1sc2ccccc2n1C
→ i | 2.7% | 0.16
- CC(C)Nc1nc(N(c2ccccc2)c2ccccc2)nc(-n2ccnc2)n1
→ i | -7.3% | 0.16
- COc1ccc(-n2ncc3c(NCc4cccs4)ncnc32)cc1
→ i | -0.1% | 0.32
- CSc1cccc(NC(=O)CSc2nnc(C)s2)c1
→ i | 3.2% | -1.1
- O=C(Cc1cc(=O)[nH]c(=O)[nH]1)N1CCC(Cc2ccccc2)CC1
→ i | -0.8% | -0.51
- Nc1nc(Nc2cccc3ccccc23)nc(C2CCCC2=O)n1 (centres undefined)
→ i | -0.7% | -0.43
- COc1nc(Nc2cccc(C(F)(F)F)c2)nc(OC)n1
→ i | 11% | -0.18
- O=C(NC12CC3CC(CC(C3)C1)C2)N1CCN(C(=O)C2CCCO2)CC1 (centres undefined)
→ i | 3.3% | -0.41
- COc1ccc2nc(-c3ccccc3)[nH]c2c1
→ + | 13% | -1.3
- CN/S(=N/S(=O)(=O)c1ccccc1)c1ccc(C)cc1 (centres undefined)
→ i | 6.3% | 0.15
- Cc1nnc(N(CCC#N)CCC#N)s1
→ i | -1.0% | -0.69
- Cc1ccc(C(=O)Nc2cccc(C(=O)NCc3ccco3)c2)cc1
→ i | -0.9% | -0.26
- O=C(COC(=O)c1ccc(S(=O)(=O)Nc2ccccc2)cc1)NCCN1C(=O)CSC1=O
→ i | -0.6% | 0.54
- COc1cc(C(=O)N(Cc2cc3ccccc3[nH]c2=O)CC2CCCO2)cc(OC)c1OC (centres undefined)
→ i | -9.5% | 1.2
- COc1ccc(C2/C(=C(/O)c3ccccc3)C(=O)C(=O)N2c2ncccn2)cc1OC (centres undefined)
→ i | 7.5% | -0.09
- CCCCC(=O)Nc1cccc(-c2nn3c(C)nnc3s2)c1
→ i | -2.8% | 1.6
- CC(C)COc1nc2ccccc2nc1C(C#N)C(=O)NC1CCCCC1 (centres undefined)
→ i | -66% | 0.31
- COc1cc2c(cc1OC)C(c1cccs1)NCC2 (centres undefined)
→ i | 4.4% | 1.2
- O=C(CC1Sc2ccccc2NC1=O)Nc1cccc(C(=O)O)c1 (centres undefined)
→ i | 8.2% | 1.6
- N/C(=N\c1nc2c(c(=O)[nH]1)CCCC2)Nc1ccccc1
→ i | -4.5% | -1
- CCOC(=O)c1ccc(NC(=O)CN(Cc2ccc(Cl)cc2)S(C)(=O)=O)cc1
→ i | 0.6% | ·
- Cc1nc(-c2cccc(S(=O)(=O)N3CCCC(C)C3)c2)cs1 (centres undefined)
→ i | 4.6% | ·
- Cc1ccccc1C(=O)NC1CCN(Cc2nnnn2Cc2ccc(F)cc2)CC1
→ i | -1.7% | 0.45
- CC1(C)CC(=O)C=C(Nc2cc(-c3ccccc3)[nH]n2)C1
→ i | 7.0% | -2.3
- Cc1cc(C)cc(OCc2nnc(SCC(=O)Nc3ccccc3)o2)c1
→ i | 4.2% | -0.0047
- CN=C1CC(SC)=C1c1ccc(C)cc1
→ i | -2.7% | ·
- CCCCC(=O)c1ccc(O)cc1O
→ i | -3.4% | ·
- N#CC1=C(N)OC2=C(C(=O)CCC2)C1C1C=CCCC1 (centres undefined)
→ i | 3.3% | -1.7
- CCc1cc2c(=O)c(-c3cnn(-c4ccccc4)c3)coc2c(CN2CCOCC2)c1O
→ i | -6.0% | 0.2
- CC1(C)CC2CC(C)(CN2C(=O)CCCN2C(=O)c3ccccc3C2=O)C1 (centres undefined)
→ i | 6.3% | 0.09
- CCN(CC)c1ccc(C2CC(=O)NC3=C2C(=O)CC(C)(C)C3)cc1 (centres undefined)
→ i | 2.2% | 0.65
- CC(O)CNc1nc2c(c(=O)n(C)c(=O)n2C)n1CCc1ccccc1 (centres undefined)
→ i | -0.8% | -0.68
- CCCn1c(=O)[nH]c(=O)c2c1nc(-c1ccccc1)n2CCN1CCOCC1
→ i | 5.4% | ·
- C=CCSc1nnc(-c2ccccc2NC(=O)CC)c(=O)[nH]1
→ i | 2.6% | -0.48

# In a second layout: entries from further up.
mol	MT1-MMP reporter	Hsc70 ATP site	WNV NS2B-NS3 inh
CC(C)Nc1nc(N(c2ccccc2)c2ccccc2)nc(-n2ccnc2)n1	i	-7.3%	0.16
COc1ccc(-n2ncc3c(NCc4cccs4)ncnc32)cc1	i	-0.1%	0.32

# (next part)
# Fields – MT1-MMP reporter | Hsc70 ATP site | WNV NS2B-NS3 inh
- C=CCN=C(NC#N)SCC(=O)c1cccc(OC)c1
→ i | -4.8% | -1.1
- CN(c1ccccc1C(=O)Nc1ccc(S(=O)(=O)N2CCCC2)cc1)S(C)(=O)=O
→ i | -2.8% | ·
- Cc1noc(/C=C/NCc2cccnc2)c1S(=O)(=O)N(C)CC(=O)N1CCc2ccccc21
→ i | 2.0% | -1.8
- COC(=O)CNC(=O)Cc1c(F)cccc1Cl
→ i | 3.2% | -0.63
- O=C(c1cccs1)N1CCN=C1SCc1cccnc1
→ i | -4.1% | -0.28
- O=C(CSc1ccccn1)N1CCN(C(=O)CSc2ccccn2)CC1
→ i | 2.1% | 0.34
- O=C(COC(=O)c1ccc(S(=O)(=O)N2CCOCC2)cc1)NC1CCCCCC1
→ i | 6.4% | 0.09
- Cc1cnc(NC(=O)CN(C)S(=O)(=O)c2ccc(Cl)cc2)s1
→ i | 2.4% | -1.1
- CC(=O)Nc1c(C(=O)O)oc2ccc(Cl)cc12
→ i | -7.9% | -1.1
- COc1ccc2c(=O)cc(C(F)(F)C(F)(F)F)oc2c1
→ i | -0.6% | 0.17
- COc1ccc(C(C(C(=O)c2cccs2)N2CCOCC2)N2CCOCC2)cc1OC (centres undefined)
→ i | 6.7% | 0.51
- COc1cc2c(cc1OC)CN(Cc1nc3ccsc3c(=O)[nH]1)CC2
→ i | 1.2% | -0.23
- Cc1cccc(NCc2ccccc2O)c1
→ i | 3.7% | -0.83
- CC1CCN(CCCNC(=O)c2cc3sccc3n2C)CC1
→ i | 1.8% | 1.9
- CS(=O)(=O)N(CC(=O)N1CCCCCC1)c1ccccc1
→ i | 3.8% | 0.22
- CCOC(=O)N1CCN(C(=O)c2ccc(Cn3c(=S)[nH]c4cc5c(cc4c3=O)OCO5)cc2)CC1
→ i | -11% | 1.3
- NC(=O)c1ccc(N2CCCCC2)c(N2C(=O)C3C4C=CC(C4)C3C2=O)c1 (centres undefined)
→ i | -0.3% | 1.6
- O=S1(=O)N=C(N2CCN(c3ccc(F)cc3)CC2)c2ccccc21
→ i | 1.3% | ·
- CCN1CCN(C(=O)N[C@@H](C(=O)N[C@@H]2C(=O)N3[C@@H]2SC(C)(C)[C@@H]3C(=O)O)c2ccccc2)C(=O)C1=O
→ i | -5.7% | -2.4
- Cc1cc(C)c2cc(C(O)c3nnnn3Cc3ccccc3)c(=O)[nH]c2c1 (centres undefined)
→ i | -12% | -0.39
- Cn1c(=O)oc2cc(S(=O)(=O)N3CCCC(C(=O)N4CCn5c4nc4ccccc45)C3)ccc21 (centres undefined)
→ i | 0.9% | 0.54
- COCC(=O)n1nc(NCc2ccc(OC)cc2)nc1NCc1ccc(OC)cc1
→ i | 1.0% | 0.93
- O=C(Nc1cc(C(F)(F)F)ccc1N1CCOCC1)c1cn2ccccc2n1
→ i | -0.7% | ·
- CCN(CC)S(=O)(=O)c1cc(-c2nnc(-c3ccc(Br)cc3)o2)ccc1Br
→ i | -2.3% | ·
- COC(=O)c1sc2ncn(-n3c(C)ccc3C)c(=O)c2c1C
→ i | 2.6% | ·
- Cc1ccc(-c2nnn(CC(=O)N(c3ccc(F)cc3)C(C(=O)NC(C)(C)C)c3ccco3)n2)o1 (centres undefined)
→ i | -2.7% | ·
- COc1ccc(C2CC(c3cccs3)n3nc(N)nc3N2)cc1 (centres undefined)
→ i | -2.7% | 0.39
- O=C(Cc1ccccc1)NCCCN1CCN(CCCNC(=O)Cc2ccccc2)CC1
→ i | 4.1% | 0.8
- CC(=O)c1c(C)nn(CCC(=O)O)c1C
→ i | -3.2% | -1.1
- CCc1ccccc1-n1c(SCC(=O)NC)nnc1-c1cccnc1
→ i | -1.2% | -0.09
- CC(=O)Nc1ccc(-c2nnc(SCC(=O)n3c4c(c5ccccc53)CCCC4)n2C)cc1
→ i | -3.1% | -1.5
- CC(C)c1nnc(NC(=O)CCC(=O)N2CCN(c3ccccn3)CC2)s1
→ i | 5.5% | ·
- CN(C)CCCNC(=O)c1ccc(-c2ccccc2)cc1
→ i | -2.2% | 0.23
- Cc1noc(C)c1COc1cccc(C(=O)NCc2cccc(Cl)c2)c1
→ i | 0.6% | ·
- COc1ccc(N2CCN(C(=O)C(Cc3ccccc3)n3cccc3)CC2)cc1 (centres undefined)
→ i | 2.6% | 0.03
- COc1ccc(-c2ncc3ccccn23)cc1OC
→ i | 1.1% | ·
- COc1ccc(-c2nnc(SCC(=O)N3CCC(Cc4ccccc4)CC3)o2)cc1OC
→ i | 2.2% | -0.32
- COCCCNCC(=O)Nc1ccc(OC(F)(F)F)cc1
→ i | 1.2% | -0.64
- COC(=O)c1ccc2[nH]c(C)c(CN3CCCC3)c(=O)c2c1
→ i | 0.6% | 0.75
- Cc1ccc(C)c(N2CCN(C(=O)CN3C(=O)c4ccccc4C3=O)CC2)c1
→ i | 2.4% | -0.41
- O=C(C1CC=CCC1)N1CCN(C(=O)C2CC=CCC2)CC1 (centres undefined)
→ i | 4.2% | ·
- O=S(=O)(c1cccc2ccccc12)N1CCSC1
→ i | 5.1% | -0.41
- COc1ccc(CCNS(=O)(=O)c2cccc(F)c2)cc1OC
→ i | -3.7% | 0.36
- COC(=O)Oc1nsnc1N1CCOCC1
→ i | -1.0% | 0.87
- CCc1cccc(OCCCCNCCOC)c1
→ i | 6.2% | -0.33
- O=C(CN1C(=O)COc2ccccc21)N(Cc1ccc2c(c1)OCO2)CC1CCCO1 (centres undefined)
→ i | -6.6% | -0.45
- Cc1ccc(C)c(NC(=O)CSc2nnc([C@@H](N)Cc3ccccc3)o2)c1
→ i | -7.8% | ·
- C=CCn1c(SCc2ccccc2)nc(O)cc1=O
→ i | -2.2% | ·

# Just Hsc70 ATP site, for 4 of the compounds above:
structure,Hsc70 ATP site
C=CCn1c(SCc2ccccc2)nc(O)cc1=O,-2.2%
Cc1ccc(C)c(NC(=O)CSc2nnc([C@@H](N)Cc3ccccc3)o2)c1,-7.8%
CN(C)CCCNC(=O)c1ccc(-c2ccccc2)cc1,-2.2%
COc1ccc(-c2ncc3ccccn23)cc1OC,1.1%

# High-throughput results (PubChem BioAssay)
